Screening data (PubChem)
gsp ag – qHTS for Agonist of gsp, the Etiologic Mutation Responsible for Fibrous Dysplasia/McCune-Albright Syndrome: qHTS; gsp mutant cells, cAMP HTRF, 30 min; control for the full effect not named in the record; Potency, µM (series often up to 76.9 µM), for the others: at the top dose activation (cAMP increase), most hits filed as activators; AID 624287, 2012; 0.13% of 340,000 active; active = well fitted activation curve with a large enough effect; inconclusive = small, poorly fitted or top-dose-only effect, or another doubt; inactive = no such curve, though single readings can be large or run the other way; cell line not stated here;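 further: phosphodiesterase inhibitor Ro 20-1724 added with compounds to block cAMP breakdown; potency means the concentration at half of the fitted maximal effect; nearly all actives have a fitted effect of over 60% in size; about a fifth of the inactives were tested at one dose only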
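Cells in DMEM/10% FBS with G418 were pretreated with compounds in DMSO plus […] (300 uM stock) for 30 min at 37C. cAMP was measured by HTRF (cAMP-d2 plus anti-cAMP antibody-K) after 30 min at room temperature.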
TRPV1 potentiator – HTS Assay for Compounds that Act as Potentiators of the Vanilloid Receptor 1 | Transient receptor potential cation channel subfamily V member 1 (Homo sapiens), Q8NER1 | potentiation, % at 8.33 µM | AID 540277, 2011 | 0.02% of 320,000 active | TRPV1-expressing cells, Fluo-8 calcium influx, capsaicin EC20 potentiation; host cell line not named in the record; control for the full effect not named in the record; active means potentiation above 80%; inconclusive means 30% to 80%; inactive means below 30%; further: 0% is about no effect
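TRPV1-expressing cells were cultured overnight at 35.5C and loaded with Fluo-8 calcium dye for 40 to 90 min at room temperature. After a 10 s baseline, compound was added and calcium influx was read kinetically for 3 min (ex 480/em 520 nm).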
Menin-MLL FL inh – qHTS Assay for Inhibitors Targeting the Menin-MLL Interaction in MLL Related Leukemias: Competition With Fluorescein Labeled MLL-derived Peptide. Fluorescence polarization, fluorescein-MLL peptide displacement from menin. FP activity change, % at 61.4 µM. 290,000 tested, under 10 active. AID 1766, 2009; inconclusive = falling polarisation curve, or a change in total fluorescence; inactive = total fluorescence flat and polarisation flat or rising; no compound was filed as active; the % refers to the polarisation; negative = inhibition;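 further: % of control where 0% means no effect; inhibitors lower the polarisation; unlabelled MLL peptide was the positive control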
ClpP mod – qHTS Assay for Activators of ClpP. ATP-dependent Clp protease proteolytic subunit (Bacillus subtilis (strain 168)), P80244. purified B. subtilis ClpP, FRET peptide cleavage, 20 min. Potency, µM (series often up to 57.5 µM), for the others: at the top dose activity change, negative = active. 1.9% of 340,000 active. AID 651965, 2013; active = well fitted falling curve with a large enough effect; inconclusive = small, poorly fitted or top-dose-only effect; inactive = no such curve, though single readings can be large or run the other way; further: potency means the concentration at half of the fitted maximal effect; the source files actives as falling curves though it sought activators and does not explain the sign; nearly all actives have a fitted effect of over 65% in size; many hits overshoot -100%
Target sequence (P80244 whole entry, looked up): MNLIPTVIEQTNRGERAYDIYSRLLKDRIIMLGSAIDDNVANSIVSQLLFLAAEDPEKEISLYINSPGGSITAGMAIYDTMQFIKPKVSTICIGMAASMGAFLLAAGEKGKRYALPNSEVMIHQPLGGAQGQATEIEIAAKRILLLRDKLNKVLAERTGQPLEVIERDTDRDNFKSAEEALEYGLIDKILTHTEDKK
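ClpP 10 microg/mL final, pH 8 Tris/KCl buffer with BSA, glycerol, Tween-20; compound pinned in; FRET-FV substrate; RT 20 min; Ex320/Em430; ΔFRET vs ADEP 5.8 microM, DMSO, no enzyme.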
TRPML1 inh – qHTS for Inhibitors of the Human Mucolipin Transient Receptor Potential 1 (TRPML1) | Mucolipin-1 (Homo sapiens), Q9GZU1 | TRPML1-inducible cells, Ca2+ dye fluorescence, FDSS; stronger effect = lower value; inhibition of EC80 agonist-evoked calcium signal | activity change, negative = inhibition, % (test concentration not listed) | 0.02% of 390,000 active; in the data active means activity change below about -50%; inconclusive means about -30% to -50%; inactive means above about -30%;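 further: stimulus is agonist 54-4 at its EC80 concentration; on the % scale 0 is the no-effect control and ±100 the full control effect; compound concentration not given in the record; the text of the record puts the active cut at -80%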
Target sequence (Q9GZU1 whole entry, looked up): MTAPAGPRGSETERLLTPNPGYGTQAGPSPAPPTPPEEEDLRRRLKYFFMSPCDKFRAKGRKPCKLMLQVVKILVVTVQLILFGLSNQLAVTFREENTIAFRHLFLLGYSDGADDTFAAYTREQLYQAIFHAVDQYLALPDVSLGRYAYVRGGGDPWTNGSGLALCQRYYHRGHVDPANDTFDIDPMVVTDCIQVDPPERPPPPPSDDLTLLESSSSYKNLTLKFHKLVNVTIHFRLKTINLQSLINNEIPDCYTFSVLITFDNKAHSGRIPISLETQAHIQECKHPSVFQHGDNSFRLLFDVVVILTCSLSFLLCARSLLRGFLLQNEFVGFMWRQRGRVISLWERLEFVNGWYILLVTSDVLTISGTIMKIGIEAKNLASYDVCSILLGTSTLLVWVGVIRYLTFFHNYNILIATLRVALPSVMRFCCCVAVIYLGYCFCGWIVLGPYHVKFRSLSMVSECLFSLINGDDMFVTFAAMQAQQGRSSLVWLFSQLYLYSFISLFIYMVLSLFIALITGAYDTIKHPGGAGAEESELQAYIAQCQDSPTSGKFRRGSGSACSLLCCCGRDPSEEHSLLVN
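Calcium fluorescence in TRPML1-DL cells induced overnight with Tet: a 110 s read after compound pin addition, then a 110 s antagonist read after challenge with 54-4 at 4 uM final (EC80).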
gsp antag – qHTS for Antagonists of gsp, the Etiologic Mutation Responsible for Fibrous Dysplasia/McCune-Albright Syndrome: qHTS; 0.4% of 340,000 active; Potency, µM (top dose mostly 76.9 µM), for the others: top-dose activity change, negative = inhibition, usual class: inhibitors; gsp-mutant cells, cAMP HTRF, 30 min; control for the full effect not named in the record; active = falling curve of any shape with a large fitted effect; inconclusive = falling curve, mostly with a smaller effect; inactive = flat or rising curve; cell line not stated here;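 further: intracellular cAMP measured with PDE inhibitor Ro 20-1724 present during compound exposure; potency means the concentration at half of the fitted maximal effect; on the % scale 0 is the no-effect control and ±100 the full control effect; nearly all actives have a fitted effect of over 65% in size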
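Measurement of cellular cAMP by homogeneous time-resolved fluorescence following a 30 min compound exposure at 37C. The PDE inhibitor […] was present throughout; the assay buffer was DPBS with 0.05% BSA and 0.005% Tween 20.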
Sfp PPTase inh – qHTS Assay for Inhibitors of Bacillus subtilis Sfp phosphopantetheinyl transferase (PPTase); 4'-phosphopantetheinyl transferase ffp (Bacillus subtilis), Q9F4F7; Biochemical Sfp PPTase activity, qHTS; Potency, µM, for inactives: max response, negative = inhibition, hits mostly inhibitors; 3.5% of 310,000 active; AID 1490, 2009; active means well fitted inhibition curve with a large enough effect; inconclusive means small, poorly fitted or top-dose-only effect, or another doubt; inactive means no such curve, though single readings can be large or run the other way;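 further: the enzyme is Sfp with the accession as filed and its product quenches rhodamine fluorescence; potency means the concentration at half of the fitted maximal effect; 0% = enzyme reaction without inhibitor and -100% = no enzyme wells; top concentration of the series not given in the record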
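After 15 min at room temperature with compound, 15 nM Sfp received 5 uM rhodamine-CoA plus 12.5 uM BHQ-2-ybbR (50 mM Hepes pH 7.6, 10 mM MgCl2). Rate came from the fluorescence difference over 30 min, ex 525/em 598 nm.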
* marks the source's active call; other numbers are inactive results; ? = inconclusive; · = not tested or not shown; & = joins results of further samples; [ ] = dose if it differs, or a comment.

SMILES	gsp ag	TRPV1 potentiator	Menin-MLL FL inh	ClpP mod	TRPML1 inh	gsp antag	Sfp PPTase inh
CCOC(=O)C(C#N)=CN1CCNc2ccccc21	1%	·	·	·	6	?	·
CCOc1ccc(NC(=S)NC(=O)/C=C/c2ccc(Br)cc2)c([N+](=O)[O-])c1	-11%[15.4 µM]	-6	4.9	·	10	-2%	-4%
Cc1ccc2sc(N(CCCN(C)C)C(=O)CN3C(=O)c4ccccc4C3=O)nc2c1C	-10%[15.4 µM]	-1	-0.5	·	26	7%	-8%
Fc1ccc(OCCn2cnc(Cl)c2Cl)cc1	25%	10	0.0	0.4%	-18	7%	17%
C=CCSc1nnc2c(n1)OC(C)=Nc1ccc(Br)cc1-2	10%	3	-2.1	1.2%	-24	5%	-5%
Cc1ccc(-c2nn(C)c(=O)c3ccccc23)cc1CNC(=O)NC1CCCCC1	-25%[15.4 µM]	?	5.1	?	94	3%	?
COc1cc(OC)cc(-c2cc3ccc(OC)cc3cn2)c1	·	-8	·	4.3%	-8	-13%	·
O=C(NC1CCCc2c1cnn2-c1cc(F)cc(F)c1)c1ccncc1 (configuration not stated)	?	-5	·	1.1%	6	2%	9%
CC(=O)C(CC(=O)N1CCCc2ccccc21)C(=O)Nc1ccc(F)cc1 (configuration not stated)	-9%	-12	-1.0	1.3%	-11	6%	-18%
Fc1ccc(N2CCN(c3nc(CN4CCOCC4)nc4scc(-c5ccccc5)c34)CC2)cc1	-21%	-4	30[activator]	-5.1%	-6	?	-15%
COc1ccc(-c2csc(NC(=O)Cc3ccccc3)n2)cc1OC	-43%[inhibitor]	-1	?	-0.6%	15	-3%	7%
Cc1ccc(S(=O)(=O)N2CCN(c3ncnc4scc(-c5ccccc5)c34)CC2)cc1	?	·	·	-1.9%	-20	-13%	·
Cc1ccc(SC(C)C(=O)NCc2ccncc2)cc1 (configuration not stated)	9%[15.4 µM]	-27	-0.6	-5.2%	-16	15%	5%
CC(Oc1ccc(Br)cc1)C(=O)Nc1ccc(S(=O)(=O)N(C)C2CCN(C)CC2)cc1 (configuration not stated)	4%[15.4 µM]	-18	·	0.5%	0	14%	·
CCCC(=O)Nc1cc2c3c(c1)CCN3C(=O)CC2	?	12	-1.3	-0.1%	11	12%	18%
COc1ccc(/C(C)=N/NC(=O)CNC(=O)c2cccs2)cc1	-13%	-1	0.4	-1.4%	12	-7%	1%
CCCNC(=O)c1ccccc1NC(=O)c1ccccc1N(C)S(C)(=O)=O	?	?	0.9	1.6%	2	8%	6%
Cc1ccccc1-c1nn2c(-c3ccccc3)nnc2s1	-7%	5	-0.7	-1.2%	-3	2%	56µM*
CCNC(=O)OCc1cn(-c2ccccc2)nn1	12%[15.4 µM]	0	-1.0	·	-7	8%	9%
Cc1ccc(S(=O)(=O)c2cc3c(=O)n4cccc(C)c4nc3n(C3CCCCC3)c2=N)cc1	-1%	13	-5.0	·	-27	4%	3%

Only ClpP mod and TRPV1 potentiator, for 2 of the compounds above:
compound	ClpP mod	TRPV1 potentiator
C=CCSc1nnc2c(n1)OC(C)=Nc1ccc(Br)cc1-2	1.2%	3
Cc1ccc(-c2nn(C)c(=O)c3ccccc23)cc1CNC(=O)NC1CCCCC1	?	?

(cont.)
SMILES	gsp ag	TRPV1 potentiator	Menin-MLL FL inh	ClpP mod	TRPML1 inh	gsp antag	Sfp PPTase inh
CCCC(=O)C1=C(SCC)CC(C)(C)C(C(=O)OC)C1=O (configuration not stated)	10%	3	-0.3	1.3%	31	?	8%
CCC1CCCCN1CCCNC(=O)CN1C(=O)c2cccnc2Oc2ccc(Cl)cc21 (configuration not stated)	23%	5	·	0.5%&-1.5%	-19&3	-13%	6%
COCCCn1c(C(=O)NC2CCCCC2C)cc2c(=O)n3cccc(C)c3nc21 (configuration not stated)	?	-14	·	3.9%	1	-1%	12%
Cc1cccc(N2CCN(C(=O)c3cccc(S(=O)(=O)N4CCc5ccccc5C4)c3)CC2C)c1 (configuration not stated)	-51%[inhibitor]	3	0.1	-0.7%	-5	-5%	1%
Cc1ccc(S(=O)(=O)CC(=O)c2ccc([N+](=O)[O-])cc2)cc1	-2%	-11	4.1	1.1%	2	-1%	20%
C=CCNC(=O)c1cn(CC)c2cc(N3CCN(C(=O)c4ccco4)CC3)c(F)cc2c1=O	?	-11	5.2	3.9%	-14	1%	20%
CCC(C(=O)NCc1ccco1)N(C(=O)CNS(=O)(=O)c1ccccc1)C1CCCCC1 (configuration not stated)	-12%	-5	1.7	-0.3%	1	-9%	5%
Cc1cccc(-n2c(SCC(=O)Nc3ccc4c(c3)OCO4)nnc2-c2ccoc2C)c1	6%	-10	0.5	-1.5%	-2	-1%	-4%
Cc1ccc(/C=C2\SC(=S)N(CCC(=O)NNC(=O)c3cccnc3)C2=O)cc1	-28%	21	6.6	-0.5%	14	-11%	-23%
CCCOc1ccc(-c2nc(=S)[nH][nH]2)cc1	14%	?	1.3	-2.6%	-2	0%	50µM*
Cc1ccc(SCc2[nH]nc3c2C(C(C)C)C(C#N)=C(N)O3)cc1 (configuration not stated)	-19%	15	1.9	1.8%	-3	-9%	22%
CCOC(=O)c1c(NC(=O)CN2C(=O)NC(C)(c3ccccc3)C2=O)sc(C)c1C (configuration not stated)	2%[15.4 µM]	-8	5.5	-7.2%	-3	8%	-6%
O=C(CCC1CCCN(C(=O)CCN2CCCCC2=O)C1)NCc1ccccc1F (configuration not stated)	2%	12	0.0	·	2	8%	3%
O=C(c1c[nH]c(C(=O)C(Cl)(Cl)Cl)c1)c1ccc(F)cc1Cl	21%[15.4 µM]	19	-5.2	·	5	1%	8%
Cc1ccc(C(=O)Oc2ccc(/C=N/NC(N)=O)cc2)cc1	-59%[inhibitor]	4	0.4	0.5%	27	3%	5%
Cc1ccc(S(=O)(=O)N2CCC(C(=O)N[C@@H](Cc3ccccc3)C(=O)O)CC2)cc1	24%	-27	9.7	-0.5%	3	1%	14%
Cc1cc(NC(=O)CSc2cc(Cl)ccc2Cl)n(-c2ccccc2)n1	-30%	0	15	2.1%	0	-22%	8%
CCN1CN(Cc2ccccc2)CNC1=S	-28%	-4	-1.7	1.4%	-17	9%	2%
Nc1c(C(=O)CSc2ncccn2)c(=O)[nH]c(=O)n1C1CC1	12%	0	·	1.3%	-9	17%	·
COc1ccnc(Oc2ccccc2)c1C(=O)N/C=N/OCc1ccc(F)cc1Cl	-12%	5	-1.4	1.2%	3	4%	?
C[C@@H]1COC(=O)[C@@H](Cc2ccc(F)cc2)C/C=C\C[C@@H](CC(=O)NCCO)C(=O)N1	·	·	·	-0.5%	3	11%	·
CCN1C(=O)[C@H]2[C@@H](c3ccc(-c4cccc(Cl)c4)c(OC)c3)N[C@@](CC(C)C)(C(=O)OC)[C@H]2C1=O	-16%	?	·	-7.6%	21	?	·
COc1ccc(NC(=O)C(C)N2C(=O)C3CC=C(Cl)CC3C2=O)cc1 (configuration not stated)	-14%	-32	·	-1.3%	-3	-11%	7%
CCNC(=S)N/N=C/c1cc(C)ccc1C	1%[15.4 µM]	-5	-0.1	-3.0%	8	14%	-11%
Cc1ccc(S(=O)(=O)c2nc(C)oc2NCc2ccccc2)cc1	·	0	-0.3	·	·	·	?
Cc1ccc(S(=O)(=O)c2c(N)n(Cc3ccco3)c3nc4ccccc4nc23)cc1C	-1%	-6	?	11µM*	-5	-27%	35µM*
COc1ccc(/C=C2/N=C3CCCCCN3C2=O)cc1OC	-1%	17	0.5	-1.0%	-14	1%	22%
O=C(N/C(=C\c1ccccc1)C(=O)N1CCCCCC1)c1ccccc1	9%[15.4 µM]	15	-1.8	·	20	·	18%
COc1ccccc1Cc1nnc(NC(=O)C2CCN(C(=O)c3ccco3)CC2)s1	0%[15.4 µM]	-6	2.3	·	-7	-2%	45µM*
Cc1ccc(-c2n[nH]c(=O)c3ccccc23)cc1S(=O)(=O)N(C)C	-42%[inhibitor]	5	2.5	-1.9%	-4	-4%	-2%
CC(C)CCc1noc(CN2CCC(C(=O)N3CCOCC3)CC2)n1	-14%	-4	-2.8	-21%	-10	2%	12%
O=C(CN1C(=O)c2ccccc2S1(=O)=O)Nc1cccc(S(=O)(=O)N2CCOCC2)c1	-1%[15.4 µM]	·	·	1.1%	-9	-4%	·
CC1CCN(C(=O)c2nc[nH]c2C(=O)N2CCC(C)CC2)CC1	·	10	·	-6.9%	0	1%	·
O=C(Nc1ccc(C(=O)O)cc1)/C(=C\c1ccc2c(c1)OCO2)NC(=O)c1ccc(Br)cc1	-27%	6	?	·	-26	-7%	-3%
COc1cc(/C=N/N=C2/NC(=O)C(Cc3ccc(F)cc3)S2)ccc1O (configuration not stated)	-7%	-2	-6.9	·	10	-10%	-25%
O=C(NCCCc1ccccc1)c1cccc(S(=O)(=O)N2CCOCC2)c1	-2%	-32	·	0.8%	9	6%	·

Three of the entries above in order of the Sfp PPTase inh value, falling.
canonical_smiles	Sfp PPTase inh
COc1ccc(/C=C2/N=C3CCCCCN3C2=O)cc1OC	22%
CCNC(=S)N/N=C/c1cc(C)ccc1C	-11%
COc1cc(/C=N/N=C2/NC(=O)C(Cc3ccc(F)cc3)S2)ccc1O (configuration not stated)	-25%
